# Bioassay records as filed in PubChem.
# Sfp inh: inhibitors of Bacillus subtilis Sfp phosphopantetheinyl transferase. Q9F4F7. Potency, µM, for the others: max response, negative = inhibition, actives largely listed as inhibitors. 310,000 tested, 3.5% active. Biochemical Sfp PPTase activity, qHTS; active = well fitted inhibition curve with a large enough effect; inconclusive = small, poorly fitted or top-dose-only effect, or another doubt; inactive = no such curve, though single readings can be large or run the other way;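 note: the enzyme is Sfp with the accession as filed and its product quenches rhodamine fluorescence; potency is the fitted concentration of half-maximal effect; 0% = enzyme reaction without inhibitor and -100% = no enzyme wells; top concentration of the series not given in the record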
#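 After 15 min at room temperature with compound, 15 nM Sfp received 5 uM rhodamine-CoA plus 12.5 uM BHQ-2-ybbR (50 mM Hepes pH 7.6, 10 mM MgCl2). Rate came from the fluorescence difference over 30 min, ex 525/em 598 nm.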
# D2 PAM: potentiates the human D2 dopamine receptor allosterically; P14416; DiscoveRx D2 beta-arrestin cells, luminescence, 90 min; 100% = 57 uM dopamine signal; potentiation, % (no concentration beside the values); 360,000 tested, 0.23% active; AID 624464; active = potentiation of 50% or more; inconclusive = 30% to 50%; inactive = 30% or less;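 note: compound concentration not given in the record; tested on top of an EC20 dose of dopamine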
# Target sequence (P14416 whole entry, looked up): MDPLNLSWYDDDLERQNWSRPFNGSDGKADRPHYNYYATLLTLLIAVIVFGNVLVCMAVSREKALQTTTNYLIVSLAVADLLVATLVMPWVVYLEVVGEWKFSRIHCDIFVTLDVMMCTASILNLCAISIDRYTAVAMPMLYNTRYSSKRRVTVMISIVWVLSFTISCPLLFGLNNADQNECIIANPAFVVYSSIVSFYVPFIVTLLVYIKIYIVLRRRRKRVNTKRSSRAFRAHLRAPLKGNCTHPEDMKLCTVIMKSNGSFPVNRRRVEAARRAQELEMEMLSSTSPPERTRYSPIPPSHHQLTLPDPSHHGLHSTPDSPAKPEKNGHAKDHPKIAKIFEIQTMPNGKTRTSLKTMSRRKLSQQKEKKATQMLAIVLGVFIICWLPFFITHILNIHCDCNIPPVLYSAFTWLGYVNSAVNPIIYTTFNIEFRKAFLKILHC
#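 PathHunter beta-arrestin assay in DiscoveRx D2 cells. Compounds were added with an EC20 of dopamine (50 nM final) for 90 min at 37 deg C. Luminescence was read 1 h after detection reagent, with 57 uM dopamine as the EC100 control.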
# TRPV1 potentiator: human TRPV1 potentiation; 320,000 tested, 0.02% active; TRPV1-expressing cells, Fluo-8 calcium influx, capsaicin EC20 potentiation; host cell line not named in the record; control for the full effect not named in the record; AID 540277; potentiation, % at 8.33 µM; Q8NER1; active means potentiation above 80%; inconclusive means 30% to 80%; inactive means below 30%; note: 0% is about no effect
#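 Cells expressing TRPV1 were dye-loaded with Fluo-8 and read kinetically: 10 s baseline, 3 min after compound (agonist portion), then 2 min after EC20 capsaicin (allosteric enhancer portion). Calcium-bound dye fluorescence at 480/520 nm.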
# Menin-MLL FL inh: displaces fluorescein MLL peptide from human menin; FP activity change, % at 61.4 µM; Fluorescence polarization, fluorescein-MLL peptide displacement from menin; 290,000 tested, under 10 active; inconclusive = falling polarisation curve, or a change in total fluorescence; inactive = total fluorescence flat and polarisation flat or rising; no compound was filed as active; the % refers to the polarisation; negative = inhibition;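 note: % of control where 0% means no effect; inhibitors lower the polarisation; unlabelled MLL peptide was the positive control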
# gsp agonist: gsp mutant agonism. gsp mutant cells, cAMP HTRF, 30 min; control for the full effect not named in the record. Potency, µM (titrated, usually from 76.9 µM), for inactives: at the highest dose activation (cAMP increase), actives largely listed as activators. 340,000 tested, 0.13% active. AID 624287; active = well fitted activation curve with a large enough effect; inconclusive = small, poorly fitted or top-dose-only effect, or another doubt; inactive = no such curve, though single readings can be large or run the other way; cell line not stated here;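 note: phosphodiesterase inhibitor Ro 20-1724 added with compounds to block cAMP breakdown; potency is the fitted concentration of half-maximal effect; nearly all actives have a fitted effect of over 60% in size; about a fifth of the inactives were tested at one dose only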
#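 Cells stably selected in G418 were plated at 2000/well, grown 16-24 hr, then given compounds in DMSO with the PDE inhibitor […] (300 uM solution added) for 30 min at 37C; cAMP was read by HTRF.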
# gsp antag: antagonists of gsp mutant (McCune-Albright syndrome); Potency, µM (top dose mostly 76.9 µM), without a hit: at the highest dose activity change, negative = inhibition, actives largely listed as inhibitors; 340,000 tested, 0.4% active; gsp-mutant cells, cAMP HTRF, 30 min; control for the full effect not named in the record; active = falling curve of any shape with a large fitted effect; inconclusive = falling curve, mostly with a smaller effect; inactive = flat or rising curve; cell line not stated here;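 note: intracellular cAMP measured with PDE inhibitor Ro 20-1724 present during compound exposure; potency is the fitted concentration of half-maximal effect; % is set by controls: 0 for no effect and ±100 for the full control effect; nearly all actives have a fitted effect of over 65% in size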
#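 HTRF cAMP read-out (cAMP-d2 plus anti-cAMP antibody-K in lysis buffer, 30 min RT). Before lysis, cells are exposed to compounds with […] for 30 min at 37C in DPBS containing Ca/Mg, BSA and Tween 20.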
# ClpP mod: qHTS Assay for Activators of ClpP | ATP-dependent Clp protease proteolytic subunit (Bacillus subtilis (strain 168)), P80244 | purified B. subtilis ClpP, FRET peptide cleavage, 20 min | Potency, µM (titrated, usually from 57.5 µM), for inactives: top-dose activity change, negative = active | 340,000 tested, 1.9% active | AID 651965, 2013; active = well fitted falling curve with a large enough effect; inconclusive = small, poorly fitted or top-dose-only effect; inactive = no such curve, though single readings can be large or run the other way; note: potency is the fitted concentration of half-maximal effect; the source files actives as falling curves though it sought activators and does not explain the sign; nearly all actives have a fitted effect of over 65% in size; many hits overshoot -100%
# Target sequence (P80244 whole entry, looked up): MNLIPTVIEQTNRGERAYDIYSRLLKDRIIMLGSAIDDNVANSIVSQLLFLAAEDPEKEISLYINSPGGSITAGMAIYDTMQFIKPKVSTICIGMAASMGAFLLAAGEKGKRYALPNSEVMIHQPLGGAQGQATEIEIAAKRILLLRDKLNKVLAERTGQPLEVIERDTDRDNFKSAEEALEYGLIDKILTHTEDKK
#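 Buffer: 100 mM Tris/HCl pH8, 100 mM KCl, 0.05% low protease BSA, 2.5% glycerol, 0.01% Tween-20. ClpP 10 microg/mL final; 20 min RT; delta FRET normalized to ADEP and DMSO controls.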
# * hit, by the source's call; u = inconclusive; x = not tested or not shown; & = joins results of further samples; [ ] = dose if it differs, or a comment.
Structure	Sfp inh	D2 PAM	TRPV1 potentiator	Menin-MLL FL inh	gsp agonist	gsp antag	ClpP mod
CCOc1ccccc1C(=O)NCC(=O)N(C)CC(=O)Nc1ccc(N2CCOCC2)cc1	x	-11	x	x	-3%	x	-1.7%
CC(C)Oc1ccc(Oc2ccc(C(F)(F)F)cn2)cc1	11%	-5	-2	-0.8	4%	12%	-1.6%
CCOC(=O)c1c(NC(=O)c2cccs2)sc2c1CC(C)(C)OC2	-20%	-13	8	2.9	0%	-16%	-16%
COc1cccc(CNC(=O)c2cc3oc4ccccc4c3n2C)c1OC	-15%	-3	2	2.9	-16%	-3%	25µM*
CCn1c(SCC(=O)c2ccc3ccccc3c2)nnc1-c1ccco1	u	-16	18	1.5	22%	-16%	-0.4%
COc1ccc(NC(=O)c2oc3ccccc3c2CSC)cn1	4%	-6	-14	-5.1	1%[15.4 µM]	-12%	x
O=C(Cc1ccc(-n2c(=O)c3ccccc3n(Cc3ccccc3Cl)c2=O)cc1)NCC1CCCO1 (stereo not given)	-4%	-17	-11	7.9	-2%	-9%	-9.9%
CCOc1ccc(NC(=O)C2(c3ccc(OC)c(OC)c3)CCCC2)cc1	26%	-5	18	-1.2	-7%	-15%	0.8%
CC1CC(C)CN(C(=O)Cn2c(=O)oc3cc(S(=O)(=O)N4CCCC4)ccc32)C1 (stereo not given)	25%	-9	-2	3.9	-21%	-15%	0.2%
CC1CC(C)(C)CC2(C1)NC(=O)N(CC(=O)Nc1cc(C(F)(F)F)ccc1N1CCCCC1)C2=O (stereo not given)	x	-2	x	x	-31%	-2%	-7.8%
O=C(O)CN1C(=O)/C(=C\c2cccc(OCc3ccc(Cl)cc3Cl)c2)SC1=S	79µM*	-1	12	1.3	21%	u	x
Nc1ccn(CC(=O)NCCc2ccccn2)c(=O)n1	x	-6	14	x	x	3%	-0.9%
CC(=O)Nc1nc2c(C)c(Cl)ccc2s1	4%	-12	-8	0.1	1%	4%	-3.6%
COc1ccc(OCC(O)CNC(=O)Nc2ccc(Cl)cc2)cc1 (stereo not given)	0%	-10	-11	0.2	16%[15.4 µM]	6%	x
COc1cc(OC)c(C(=O)c2ccccc2[N+](=O)[O-])c(OC)c1	x	-5	x	x	-5%	x	0.2%
CCc1nc(N=C(N)N)nc2ccccc12	15%	x	7	2.4	x	x	x
CCOc1cc(/C=N/NC(=O)CCc2n[nH]c(=O)[nH]c2=O)ccc1O	6%	-3	-3	-1.0	0%	6%	x
COC(=O)C1=CN(c2ccc(OC)cc2)C=C(C(=O)OC)C1c1cc(OC)c(OC)cc1OC	-2%	4	-4	x	-5%[15.4 µM]	8%	-20%
Cc1cccc(OC(C)c2ccnc3nc(/N=C/N(C)C)nn23)c1 (stereo not given)	-8%	-6	-8	2.8	-10%	10%	28µM*
CC1CCN(Cc2c(C#N)c3ccccc3n2C)CC1	-4%	-49	-27	-7.0	-1%	10%	-0.4%
O=C(c1cc([N+](=O)[O-])ccc1N1CCN(S(=O)(=O)c2ccc(Cl)c(Cl)c2)CC1)N1CCOCC1	1%	-12	8	0.6	5%	4%	-1.6%
COc1ccccc1N1CCN(S(=O)(=O)c2c(C)ccc3nsnc23)CC1	5%	1	-35	0.6	-8%	-13%	-1.2%
CCN(CC(=O)Nc1ccccc1OC)C(=O)C1CCCC1	x	-5	-5	x	-1%	14%	-0.2%
COc1cccc(-c2nc(CN3CCN(C(=O)c4ccco4)CC3)c(C)o2)c1OC	x	26	x	x	-12%	x	-9.4%
CCCCNS(=O)(=O)c1cc(-c2nn(C)c(=O)c3ccccc23)ccc1C	2%	-8	1	2.4	0%	1%	-3.7%
CN1CCN(c2cc(N3CCN(C(=O)c4ccco4)CC3)c3c4c(onc24)-c2ccccc2C3=O)CC1	16µM*	-6	2	u	-34%[inhibitor]	-23%	0.5%
COc1ccc(-n2ncc3c(N4CCN(c5cccc(C)c5C)CC4)ncnc32)cc1	10%	-4	23	-1.1	39%	9%	-9.1%
COc1cc2c(cc1OC)/C(=C/C(=O)c1cccc([N+](=O)[O-])c1)NCC2	-1%	5	1	-12	-22%	7%	x
CN(C)c1ccc(C(CNC(=O)c2ccccc2F)c2c[nH]c3ccccc23)cc1 (stereo not given)	6%	-3	-5	0.0	u	-10%	-0.6%
COc1ccc(C2C(C#N)=C(N)Oc3c2c(-c2ccccc2)nn3-c2ccccc2)c(OC)c1OC (stereo not given)	-12%	1	17	6.4	-10%	2%	2.4%
O=C(COC(=O)C1CC1)NCc1ccccc1	x	0	11	x	-4%[15.4 µM]	0%	x
Cc1ccc(Cl)c(NC(=S)N(CCCN2CCOCC2)Cc2ccco2)c1	u	-26	-37	0.2	6%	-2%	-1.8%
CC(CNCCCn1ccc(NC(=O)OCc2ccccc2)nc1=O)c1ccccc1 (stereo not given)	x	-16	x	x	x	-6%	0.9%
CC(C)n1nnnc1SCC(=O)NC1CCCC1	6%	-8	18	x	-10%[15.4 µM]	3%	x
COc1ccc(Cl)cc1NC(=O)CN(C)C(=O)c1ccc(-n2nc(C)cc2C)cc1	x	-5	28	x	-39%[inhibitor]	-2%	-0.7%
O=C(CSc1nc(=O)n(CCCN2CCOCC2)c2c1CCC2)Nc1ccc([N+](=O)[O-])cc1	x	-12	-7	x	31%	-3%	0.9%
CNC(=S)N(CCCn1ccnc1)Cc1c(F)cccc1Cl	1%	-2	2	-5.1	17%[15.4 µM]	3%	x
COC(=O)[C@@H](Cc1ccccc1)NC(=O)Cn1cnc2c(SC)nc(N)nc21	x	1	x	x	x	5%	4.4%
CCOc1ccc(N/C(C)=C/C(=O)c2ccc(C)o2)cc1	-4%	-20	-6	2.0	22%	-2%	0.9%
Cc1ccc(NC(=O)CN(C)C(=O)COC(=O)[C@@H](NC(=O)c2ccccc2F)C(C)C)cc1	x	-2	x	x	-7%	-1%	0.7%
O=C(O)c1ccc(OCCCCCCOC2CCCCO2)cc1 (stereo not given)	16%	-2	-13	13	29%	-3%	x
CC1CCCN(C(=O)CCc2nnc(-c3ccc4c(c3)OCO4)o2)C1 (stereo not given)	7%	8	-15	x	-99%[inhibitor]	7%	u
CCC(=O)Nc1cccc(NC(=S)NC(=O)c2ccccc2)c1	-2%	-18	12	3.2	-23%	7%	1.0%
Cc1ccc(NC(=O)c2ccc(Cl)c(S(=O)(=O)N3CCc4ccccc43)c2)nc1	x	1	x	x	9%[15.4 µM]	-13%	x
C=CCNc1oc(-c2cccs2)nc1S(=O)(=O)c1ccccc1	6%	-4	22	2.1	-1%[15.4 µM]	-21%	1.6%
COc1ccc(-c2csc(NC(=O)c3ccc(OCC(=O)N4CCOCC4)c(OC)c3)n2)cc1	-14%	-5	14	1.7	1%[15.4 µM]	u	-0.6%
CN(C)c1nc(NCc2ccccc2)nc(SCC(N)=O)n1	8%	4	25	-0.4	5%[15.4 µM]	-9%	0.2%
CCCCCCC(=O)N1C/C=C\C(c2ccc(OC)cc2)N(Cc2ccc(F)cc2)C(=O)C1 (stereo not given)	7%&9%	-6	-14	2.7&5.4	x	u	1.5%
Cc1cccnc1NC(=O)CNC(=O)c1sc2ccccc2c1Cl	x	-2	27	x	u	-4%	-0.1%
COc1cc(CNS(=O)(=O)c2ccc3c(c2)CC(C)N3C(C)=O)cc(OC)c1OC (stereo not given)	13%	-6	7	0.7	17%	10%	0.7%
O=C(Cc1ccc([N+](=O)[O-])cc1)Nc1ccc2c(c1)C(=O)NC2=O	0%	-8	6	1.7	5%[15.4 µM]	9%	x
CS(=O)(=O)c1ccc(C(=O)OCC(=O)Nc2cccc(S(=O)(=O)N3CCCC3)c2)cc1	x	0	-5	x	20%[15.4 µM]	-4%	x
O=C(OCC1CC(c2ccccc2)=NO1)c1ccc(Cl)cc1 (stereo not given)	19%	26	1	-1.6	1%	-1%	0.0%
CCOC(=O)N1CCC(N2C(=O)c3ccc(C(=O)O)cc3C2=O)CC1	17%	-6	-7	2.0	-32%[inhibitor]	3%	-0.6%
O=C(O)c1n[nH]c2c1CCCCC2	-29%	17	-8	0.3	9%	1%	-2.3%
Nc1nc2n(n1)C(c1cccc(Br)c1)CC(c1ccccc1)N2 (stereo not given)	3%	-4	-1	1.0	-24%	-1%	-8.5%
Cn1c(=O)c2c(nc(N3CCN(c4ccc([N+](=O)[O-])cc4)CC3)n2C)n(C)c1=O	7%	-5	2	-3.3	-12%[15.4 µM]	-49%	x
O=[N+]([O-])c1ccc(N2CCN(S(=O)(=O)c3ccccc3)CC2)cc1N1CCc2ccccc2C1	3%	-20	12	7.2	13%	9%	-2.7%
CCCC1CC(C(=O)NC(C(C)Cl)C2OC(SC)C(O)C(O)C2O)N(C)C1 (stereo not given)	3%	8	-7	-0.2	x	-7%	3.3%
Cc1ccc(C(C)C)c(OCC(=O)OCC(=O)NC2CCS(=O)(=O)C2)c1 (stereo not given)	x	-9	-7	x	12%[15.4 µM]	1%	-3.8%

# (next part)
Structure	Sfp inh	D2 PAM	TRPV1 potentiator	Menin-MLL FL inh	gsp agonist	gsp antag	ClpP mod
C/C(=N/NC(=O)c1ccncc1)c1c[nH]c2ccccc12	-6%	-16	u	-0.6	1%[15.4 µM]	8%	x
O=C(O)CCn1cc(/C=C\C(=O)c2ccc(Cl)cc2)c(-c2cccc(Br)c2)n1	3%	7	-16	-0.3	-23%	u	1.2%
CN(c1cccc(NC(=O)CN(c2cccc(Cl)c2)S(=O)(=O)c2ccccc2)c1)S(C)(=O)=O	21%	-15	-2	0.3	-3%	-32%	-7.9%
CCN(C(=S)Nc1ccc(Oc2ccccc2)cc1)c1ccccc1	33%[activator]	10	1	2.7	-1%	-1%	3.5%
CCN(CC)C(=O)Cn1cnc2sc(C(=O)N3CCN(Cc4ccc5c(c4)OCO5)CC3)c(C)c2c1=O	5%	-5	28	-2.1	-3%	-5%	x
CNC(=O)C[C@H]1C(=O)N(c2ccc(OC)cc2)C[C@@H]1Cc1ccccc1	x	-5	x	x	-8%	x	0.2%
